# Marburg entry inh = qHTS for inhibitors of binding or entry into cells for Marburg Virus; Potency, µM (series often up to 37.8 µM), for inactives: at the highest dose activity change, negative = inhibition, hits mostly inhibitors; AID 540276, 2011; Marburg virus pseudotyped entry inhibition, cell reporter; control for the full effect not named in the record; about a third of the inactives were read at about 46 µM; 300,000 tested, 1.8% active; active = well fitted inhibition curve with a large enough effect; inconclusive = small, poorly fitted or top-dose-only effect, or effect the other way; inactive = flat fitted curve, though single readings scatter; tested in HEK293 cells; about a fifth of its hits are not listed in these tables; also: % is scaled to controls: 0 for no effect and ±100 for the full control effect; luciferase read-out
# Lassa entry inh = qHTS for Inhibitors of binding or entry into cells for Lassa Virus | 300,000 tested, 1.2% active | Potency, µM (doses to about 37.9 µM), inactives show at the top dose activity change, negative = inhibition, most hits filed as inhibitors | Lassa virus pseudotype entry inhibition, cell reporter; control for the full effect not named in the record; active means well fitted inhibition curve with a large enough effect; inconclusive means small, poorly fitted or top-dose-only effect, or effect the other way; inactive means flat fitted curve, though single readings scatter; tested in HEK293 cells; also: % is scaled to controls: 0 for no effect and ±100 for the full control effect; nearly all actives have a fitted effect of over 50% in size; luciferase read-out
# NS1 function inh = qHTS Assay for Inhibitors of Influenza NS1 Protein Function; 270,000 tested, 0.4% active; AID 2326, 2010; Potency, µM (series often up to 46.1 µM), inactives show at the top dose activity, positive = more growth; S. cerevisiae slowed by influenza A NS1, growth recovery by OD600; active means well fitted rising curve with a large enough effect; inconclusive means small, poorly fitted or top-dose-only effect; inactive means no such curve, though single readings can be large or run the other way; also: nearly all actives have a fitted effect of over 50% in size
#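 S. cerevisiae expressing influenza A NS1, grown in glucose, washed, then diluted 1:100 into pH 6.0 -URA galactose medium with 23 nl compound. Growth recovery read as OD600; NS1-free strain serves as control.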
# SARS PLP yeast = qHTS of Yeast-based Assay for SARS-CoV PLP. S. cerevisiae expressing SARS-CoV PLpro, growth rescue; control for the full effect not named in the record. Potency, µM (highest dose often 32.9 µM), inactives show at the highest dose activity, positive = growth rescue. 330,000 tested, 0.19% active; active means well fitted rising curve with a large enough effect; inconclusive means small, poorly fitted or top-dose-only effect; inactive means no such curve, though single readings can be large or run the other way; also: 0% is about no effect; nearly all actives have a fitted effect of over 55% in size; growth read by luminescence after 48 h
# 2A StopGo = High Throughput Screening for Foot and Mouth Disease Virus Antivirals. human cells with a luciferase reporter of 2A StopGo recoding; control for the full effect not named in the record. Potency, µM (top dose mostly 57.9 µM), inactives show at the highest dose signal change, negative = less light. 410,000 tested, 1.2% active. AID 1159524, 2015; active = well fitted falling curve with a large enough effect; inconclusive = small, poorly fitted or top-dose-only effect; inactive = no such curve, though single readings can be large or run the other way; tested in HEK293T cells; also: % is scaled to controls: 0 for no effect and ±100 for the full control effect; nearly all actives have a fitted effect of over 45% in size; luciferase light after 4 h
# RE007 growth inh = qHTS Assay for Inhibitors of the HIV-1 protein Vpr | S. pombe RE007 Vpr strain, BacTiter-Glo ATP luminescence, 24 h; control for the full effect not named in the record | Potency, µM (titrated, usually from 92.2 µM), for inactives: at the highest dose activity change, negative = less growth | 360,000 tested, 0.21% active; active = well fitted falling curve with a large enough effect; inconclusive = small, poorly fitted or top-dose-only effect; inactive = no such curve, though single readings can be large or run the other way;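 also: % is scaled to controls: 0 for no effect and ±100 for the full control effect; nearly all actives have a fitted effect of over 50% in size; the assay follows cell death caused by Vpr and the record does not say whether a fall means rescue or toxicity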
#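 Fission yeast RE007 carrying one integrated HIV-1 vpr copy, seeded at OD 0.01 in PMG+AL medium with 23 nL pinned compound. Grown 24 h at 30 degrees; viability read by BacTiter-Glo luminescence after 5 min.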
# Cruzain inh noDet = qHTS Assay for Promiscuous and Specific Inhibitors of Cruzain (without detergent); Cruzipain (Trypanosoma cruzi), P25779; purified cruzain, Z-FR-AMC fluorescence, no detergent; Potency, µM, without a hit: max response, negative = inhibition, usual class: inhibitors; 200,000 tested, 2.3% active; AID 1476, 2009;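 also: plate controls were enzyme without inhibitor for no effect and buffer without enzyme for full effect; nearly all actives have a fitted effect of over 40% in size; top concentration of the series not given in the record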
# Target sequence (P25779 123-467 limits assumed): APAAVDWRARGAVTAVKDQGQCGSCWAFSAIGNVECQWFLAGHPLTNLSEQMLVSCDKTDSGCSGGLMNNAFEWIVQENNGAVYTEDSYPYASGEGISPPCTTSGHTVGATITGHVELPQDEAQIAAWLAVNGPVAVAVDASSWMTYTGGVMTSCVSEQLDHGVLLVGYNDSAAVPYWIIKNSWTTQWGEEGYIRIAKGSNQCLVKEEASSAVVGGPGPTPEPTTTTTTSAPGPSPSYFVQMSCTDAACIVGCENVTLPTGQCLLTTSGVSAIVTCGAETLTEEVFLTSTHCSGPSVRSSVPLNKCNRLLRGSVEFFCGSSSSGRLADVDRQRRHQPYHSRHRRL
#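 Detergent-free condition (0.00005% Triton X-100) in acetate buffer pH 5.5 with DTT. 1.5 nM enzyme and compound were pre-mixed 15 min, then 2 uM Z-FR-AMC substrate added; reaction progress from fluorescence change between first and third reads (60 s).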
# Cruzain inh Det = qHTS Assay for Promiscuous and Specific Inhibitors of Cruzain (with detergent); Cruzipain (Trypanosoma cruzi), P25779; purified cruzain, Z-FR-AMC fluorescence, 0.01% Triton; Potency, µM, for inactives: max response, negative = inhibition, actives largely listed as inhibitors; 200,000 tested, 0.43% active;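 also: plate controls were neutral wells for no effect and buffer without enzyme for full effect; nearly all actives have a fitted effect of over 40% in size; top concentration of the series not given in the record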
#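 In this qHTS format, compounds are incubated with 1.5 nM cruzain for 15 min at room temperature before 2 uM Z-FR-AMC is added. Release of AMC is followed at 360/450 nm, and progress is taken as the 60 s fluorescence difference.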
# * = called active by the depositor; u = inconclusive; x = not tested or not shown; [ ] = another dose, or the depositor's remark. Unless noted, calls follow the shape of the dose curve; as a rule, active = well fitted curve in the direction sought with a large enough effect; inconclusive = small, poorly fitted or top-dose-only effect, or another doubt; inactive = no such curve, though single readings can be large; an effect the other way counts as inactive or inconclusive. Potency is read from the fitted curve at half-maximal effect.
cpd	SMILES	Marburg entry inh	Lassa entry inh	NS1 function inh	SARS PLP yeast	2A StopGo	RE007 growth inh	Cruzain inh noDet	Cruzain inh Det
1	Cc1ccccc1Nc1nc(N)nc(COC(=O)C2CCCCC2)n1	3%	5%	-17%	-13%	17%	-7%	-3%	-4.9%
2	COc1ccc(OC)c(C2C(C(=O)Nc3cccnc3)=C(C)NC3=C2C(=O)CCC3)c1 (stereo not given)	6%	12%	0%	2%	12%	-1%	-11%	2.8%
3	CCN(C(=O)CSc1nc(-c2ccccc2)cn1N)c1c(N)n(Cc2ccccc2)c(=O)[nH]c1=O	7%	19%	x	-6%	-3%	-5%	x	x
4	O=C1OCC2=C1C(c1ccc(F)cc1)c1cc3c(cc1N2)OCCO3 (stereo not given)	-43%[46.1 µM]	x	x	5%	-15%	1%	x	x
5	O=C(/C=C/Nc1ccc(F)cc1F)c1cccs1	u	1.4µM*	-11%	13%	20µM*	-29%	-9%	-13%
6	Cc1cc(NC(=O)CSc2nc(N)c(NC(=O)c3ccco3)c(=O)[nH]2)no1	x	x	-1%	1%	-6%	1%	x	x
7	C=CCn1c(C)cc(C(=O)CSc2nnc(C3CC3)n2C2CC2)c1C	7%	26%	x	-3%	-1%	0%	x	x
8	COc1ccc(CCn2c(O)c(C=NCCN3CCCCC3)c(=O)[nH]c2=O)cc1OC	6%	4%	-1%	8%	-18%	13%	-10%	2.2%
9	CCOc1ccc(C2C(C(=O)OC)=CN(C(C)c3ccccc3)C=C2C(=O)OC)cc1 (stereo not given)	x	x	3%	-4%	-11%	1%	x	x
10	O=C(NCCN1CCOCC1)c1cc(-c2ccco2)on1	u	9%	-4%	2%	36%[activator]	10%	-28%	-8.0%
11	COc1ccc(/C=N/NC(=O)c2ccccc2OCc2ccccc2)c(OC)c1	u	u	-17%	-11%	-16%	-23%	x	x
12	C=CCOC(=O)CCC(=O)Nc1cccc2ccccc12	2%	-5%	3%	-2%	-12%	-6%	3%	0.5%
13	CC(C)=CC(=O)Nc1ccc(OCc2ccccc2)cc1	-1%[46.1 µM]	u	-53%	-4%	52%[activator]	-15%	x	x
14	O=C(Cn1c(=O)nc(-c2ccccc2F)c2cc(Cl)ccc21)NCCCc1ccccc1	u	u	x	x	-27%	x	1%	-7.5%
15	COc1ccc(S(=O)(=O)NCCOc2ccccc2)cc1-n1cnnn1	-22%[46.1 µM]	u	-2%	-2%	42%[activator]	0%	x	x
16	Brc1ccc(-c2nn3c(-c4ccco4)nnc3s2)o1	-5%	-17%	-50%	-15%	-5%	-7%	-4%	-8.8%
17	Cc1ccc(C)c(NC(=O)Cn2c([N+](=O)[O-])cnc2C)c1	16%[46.1 µM]	13%	-1%	-1%	4%	4%	-6%	2.7%
18	Cn1cccc1C1C(C#N)=C(N)OC2=C1C(=O)CCC2 (stereo not given)	-3%[46.1 µM]	2%[46.1 µM]	u	0%	2%	4%	x	x
19	CC(OC(=O)CC1CCCCC1)C(=O)Nc1ccc(F)cc1 (stereo not given)	-9%[46.1 µM]	15%	x	1%	-21%	35%	x	x
20	O=C(c1cccnc1)N1C2CCC1CC(O)(c1ccc(F)cc1)C2 (stereo not given)	-8%	-4%	0%	-1%	x	-2%	-15%	0.4%
21	Cn1c(N)c(C(=O)COC(=O)c2cccc(S(=O)(=O)N3CCCCC3)c2)c(=O)n(C)c1=O	u	4%	-3%	-16%	-12%	9%	20%	3.1%
22	CC1CCN(S(=O)(=O)c2ccc(C(=O)Nc3nnc(C4=COCCO4)o3)cc2)CC1	x	x	-8%	-1%	-24%	23%	x	x
23	CCN(CC)c1ccc2cc(S(=O)(=O)c3ccc(Cl)cc3)c(=O)oc2c1	18%	11%	5%	10%	-16%	10%	u	-5.0%
24	CCCCOC(=O)c1nc(Cl)c(Cl)c(N)c1Cl	18%	u	-5%	-15%	2%	-26%	2%	-3.8%
25	Cc1cc(C(=O)NNS(=O)(=O)c2ccccc2C(F)(F)F)nn1C(C)(C)C	u	-10%[46.1 µM]	0%	0%	-17%	2%	x	x

cpd	SMILES	Marburg entry inh	Lassa entry inh	NS1 function inh	SARS PLP yeast	2A StopGo	RE007 growth inh	Cruzain inh noDet	Cruzain inh Det
26	COc1ccccc1NC(=S)N(Cc1cccnc1)Cc1ccco1	-18%[46.1 µM]	-12%	x	0%	-12%	8%	x	x
27	C=CCn1c(C)nnc1SCC(=O)NC1CC1	x	x	15%	5%	-13%	-9%	x	x
28	Cc1ccc(N2C(=O)CC(Sc3ncccn3)C2=O)cc1C (stereo not given)	x	x	8%	-2%	-14%	1%	x	x
29	O=C(CNC(=O)c1ccc2c(c1)OCO2)N/N=C/c1cc(Br)ccc1O	11µM*	u	9%	0%	-1%	2%	x	x
30	CC(C)(C)c1ccc(C(=O)Nc2nonc2-c2nc3ccccc3[nH]2)cc1	-7%	3%	-3%	1%	-21%	-3%	3.2µM*	0.3%
31	CC(OC(=O)c1ccc2ncsc2c1)C(=O)N(C)C1CCCCC1 (stereo not given)	-9%	0%	x	0%	-24%	35%	x	x
32	C=CCNc1nc(=S)[nH]c2cc(OC)c(OC)cc12	3%[46.1 µM]	10%[46.1 µM]	x	0%	7%	-6%	x	x
33	COc1ccc(CCNC(=O)c2cc(C)oc2C)cc1	x	x	1%	-6%	8%	6%	x	x
34	Cc1noc(/C=C/N(C)C)c1S(=O)(=O)N1CCCC(C(=O)NCc2ccc(Cl)cc2)C1 (stereo not given)	u	20%[14.3 µM]	u	6%	13%	3%	13%	-2.5%
35	CCN(CC1COc2ccccc2O1)C(=S)Nc1ccc(F)cc1 (stereo not given)	13%	-4%	3%	u	-2%	-5%	-16%	-2.9%
36	COc1cc(/C=N/NC(=O)c2cnn3c(C)cc(-c4ccccc4)nc23)ccc1O	-18%	-28%	1%	1%	u	-4%	4%	1.3%
37	S=c1[nH]ncc2ccccc12	-1%	13%	u	20%	0%	-8%	-7%	0.7%
38	O=C(OC1CCS(=O)(=O)c2sccc21)c1ccccc1 (stereo not given)	1%	-11%	-5%	3%	0%	25%	-8%	1.9%
39	COc1ccc(S(=O)(=O)NCC2CC3C=CC2C3)cc1OC (stereo not given)	-4%	-6%	13%	6%	58%[activator]	-8%	x	x
40	CCCn1nnc(NC(=O)c2cc(Br)ccc2OC)n1	2%	1%	-34%	-3%	x	6%	-1%	-1.7%
41	COC(CNC(=O)C1CCC(CNS(=O)(=O)c2c(C)cc(C)cc2C)CC1)OC (stereo not given)	x	x	-5%	0%	-1%	6%	x	x
42	COC(=O)C1CC2(C(=O)OC)CC(C(=O)OC)(CC(C(=O)OC)C2=O)C1=O (stereo not given)	4%	-26%	x	x	-24%	-10%	x	x
43	O=C(N/N=C/c1ccc([N+](=O)[O-])cc1)c1cc2ccccc2o1	-28%	-25%	3%	0%	-2%	4%	x	x
44	O=C(O)c1ccc2c(c1)N(Cc1ccccc1)C(=O)c1ccccc1S2=O (stereo not given)	x	x	14%	3%	0%	-1%	-9%	-2.2%
45	NC(=O)CC(NC(=O)c1ccc(Br)cc1)c1ccc(NC2CCCCCC2)c([N+](=O)[O-])c1 (stereo not given)	x	x	13%	-10%	-30%	13%	x	x
46	CS(=O)(=O)N(Cc1ccc(Cl)cc1)c1ccc(C(=O)NCCC2=CCCCC2)cc1	-5%	u	5%	7%	-26%	-9%	1%	12%
47	CC1CCN(S(=O)(=O)c2ccc(NC(=O)C3CCCCC3C(=O)O)cc2)CC1 (stereo not given)	5%[46.1 µM]	9%	x	x	7%	5%	x	x
48	CCC(=O)/C=C1\Sc2ccc(OC)cc2N1CCO	-10%[46.1 µM]	2%	3%	18%	-19%	-6%	-21%	-12%
49	Cc1nc2nc(SCC(=O)N3CCC4(CC3)OCCO4)nn2c(C)c1Cc1ccccc1	10%	-15%	-4%	1%	-2%	7%	11%	-3.0%
50	CC(C)Oc1ccc(CNC(=O)c2cnc3sc(N4CCCCCC4)nn3c2=O)cc1	x	-9%[46.1 µM]	x	x	-12%	x	-1%	-3.6%
51	Cc1ccc(C2NC(=O)c3sc(=S)n(-c4ccccc4)c3N2)cc1 (stereo not given)	6%[46.1 µM]	-21%[46.1 µM]	1%	1%	-22%	-3%	x	x
52	COc1ccc(-c2cc(C(F)(F)F)nc(-n3ccnc3C)n2)cc1	0%	-3%	1%	1%	u	-10%	u	-13%

# One compound at a time, from the list above.
# Entry for CCCn1nnc(NC(=O)c2cc(Br)ccc2OC)n1 → Marburg entry inh = 2%; Lassa entry inh = 1%; NS1 function inh = -34%; SARS PLP yeast = -3%; 2A StopGo = x; RE007 growth inh = 6%; Cruzain inh noDet = -1%; Cruzain inh Det = -1.7%
# Entry for CC(OC(=O)c1ccc2ncsc2c1)C(=O)N(C)C1CCCCC1 (stereo not given) → Marburg entry inh = -9%; Lassa entry inh = 0%; NS1 function inh = x; SARS PLP yeast = 0%; 2A StopGo = -24%; RE007 growth inh = 35%; Cruzain inh noDet = x; Cruzain inh Det = x

# Taken from above:
# C=CCn1c(C)cc(C(=O)CSc2nnc(C3CC3)n2C2CC2)c1C in Marburg entry inh shows 7%
# CC1CCN(S(=O)(=O)c2ccc(NC(=O)C3CCCCC3C(=O)O)cc2)CC1 (stereo not given) in RE007 growth inh shows 5%
# O=C1OCC2=C1C(c1ccc(F)cc1)c1cc3c(cc1N2)OCCO3 (stereo not given) in SARS PLP yeast shows 5%
# CC(C)=CC(=O)Nc1ccc(OCc2ccccc2)cc1 in Marburg entry inh shows -1%[46.1 µM]
# CC(C)Oc1ccc(CNC(=O)c2cnc3sc(N4CCCCCC4)nn3c2=O)cc1 in Cruzain inh Det shows -3.6%
# Cc1ccc(C2NC(=O)c3sc(=S)n(-c4ccccc4)c3N2)cc1 (stereo not given) in RE007 growth inh shows -3%
# Cn1cccc1C1C(C#N)=C(N)OC2=C1C(=O)CCC2 (stereo not given) in SARS PLP yeast shows 0%

# Screening results from PubChem BioAssay.
